AID923: qHTS Assay for Allosteric/Competitive Inhibitors of Caspase-1: Spectroscopic Profiling in AFC Spectral Region | hit rate 1.1% among 75,000 | compound fluorescence, AFC spectral region (405/520 nm); almost no hit is shown here | Potency, µM (series often up to 57.5 µM), for the others: top-dose fluorescence increase, actives largely listed as activators; active = well fitted activation curve with a large enough effect; inconclusive = small, poorly fitted or top-dose-only effect;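 also: potency is read from the fitted curve at half-maximal effect; 0% is about no effect; scaled to a free AFC standard on each plate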
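Titrations up to 57 uM read every 20 sec for 3 min (405/520 nm) with 50 nM caspase 1 and 5 uM Ac-WEHD-AFC, pH 7.5 HEPES buffer. Fluorescence-vs-time intercept gave baseline, scaled against on-plate AFC standard.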
A488 fluor: compound autofluorescence in A488 spectral region | hit rate 0.1% among 59,000 | AID 591 | compound autofluorescence, A488 spectral region, dye equivalency; stronger effect = higher value | max dye equivalency, M; active = above 10 nM dye equivalent; inconclusive = 1 to 10 nM; inactive = 1 nM or less; about half of its hits are not listed in these tables;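 also: highest value over a series up to 38 µM; compound alone in buffer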
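Compounds pin-transferred into 100 mM Tris buffer, pH 8.0, incubated 15 min at room temperature, then imaged with 480 nm excitation/540 nm emission filters. Fluorescence converted to Alexa 488 dye-equivalent concentration via an on-plate six-point A488 standard curve.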
TSHR agonist: activates the human thyroid stimulating hormone receptor; hit rate 0.48% among 73,000; AID 926; Potency, µM (doses to about 57.1 µM), without a hit: top-dose activation, actives largely listed as activators; HEK293-CNG-TSHR cells (CNG channel as cAMP sensor), membrane potential dye, cAMP; P16473; active = well fitted activation curve of enough size with the parental cells flat; inconclusive = any curve in the parental cells; inactive = parental cells flat and receptor cells flat or falling; also: potency is read from the fitted curve at half-maximal effect; % of control where 0% means no effect; weak receptor curves with flat parental cells got no call and are not listed
Target sequence (P16473 whole entry, looked up): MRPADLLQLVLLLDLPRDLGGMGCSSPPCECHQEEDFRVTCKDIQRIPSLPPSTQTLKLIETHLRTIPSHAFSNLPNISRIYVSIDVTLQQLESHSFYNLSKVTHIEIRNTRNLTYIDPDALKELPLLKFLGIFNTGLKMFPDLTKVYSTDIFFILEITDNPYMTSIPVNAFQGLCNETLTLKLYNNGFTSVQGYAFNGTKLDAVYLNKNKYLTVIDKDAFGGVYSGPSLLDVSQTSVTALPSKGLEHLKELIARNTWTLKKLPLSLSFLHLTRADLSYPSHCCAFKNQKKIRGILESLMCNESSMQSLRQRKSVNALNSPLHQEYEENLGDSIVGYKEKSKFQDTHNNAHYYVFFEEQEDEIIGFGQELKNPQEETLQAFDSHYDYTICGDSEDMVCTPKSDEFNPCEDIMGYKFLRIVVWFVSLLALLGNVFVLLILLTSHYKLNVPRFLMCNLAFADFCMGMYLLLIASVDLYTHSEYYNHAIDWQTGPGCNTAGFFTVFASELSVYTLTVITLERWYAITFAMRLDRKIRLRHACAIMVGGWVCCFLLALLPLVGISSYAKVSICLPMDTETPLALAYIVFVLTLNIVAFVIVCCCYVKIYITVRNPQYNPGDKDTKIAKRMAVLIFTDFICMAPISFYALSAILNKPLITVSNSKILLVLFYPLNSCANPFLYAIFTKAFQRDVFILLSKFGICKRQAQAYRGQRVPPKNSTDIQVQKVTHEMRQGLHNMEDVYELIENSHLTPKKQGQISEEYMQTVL
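HEK 293 cells stably expressing TSHR and a modified CNG channel, with CNG-only parental cells as counterscreen, were preloaded 60 min at room temperature with membrane potential dye containing 100 uM RO 20-1724. Compound exposure was 30 min, and depolarization was read as fluorescence at 590 nm.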
Resorufin fluor: resorufin region autofluorescence | max dye-equivalent concentration, M | Compound fluorescence, resorufin region 547/598 nm, buffer; stronger effect = higher value | hit rate 0.04% among 59,000; active = above 10 nM dye equivalent; inconclusive = 1 to 10 nM; inactive = 1 nM or less; a few of its hits are not listed in these tables; also: highest value over a series up to 38 µM
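Tris 100 mM pH 8.0; compound added, 15 min RT; CCD imager read, ex 547 nm/em 598 nm; signal normalized to resorufin standard curve (six concentrations per plate) as dye-equivalent concentration.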
A647 fluor: compound fluoresces in the A647 spectral region; 59,000 tested, under 10 active; Compound fluorescence, A647 channel (570/671 nm), Tris buffer; max dye-equivalent concentration, M; active means above 1 µM dye equivalent; inconclusive means 0.1 to 1 µM; inactive means 0.1 µM or less;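 also: values scaled relative to a standard on each plate; highest value over a series up to 38 µM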
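Tris 100 mM pH 8.0; cpd + A647 stds pin-transferred; 15 min RT; CCD imager, ex 570/em 671. Output = A647-equivalent conc. per cpd conc.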
The depositor's hits bear a star; i = inactive; ? = inconclusive; nt = no result given; [ ] = another dose, or the depositor's remark. Only part of the results is shown; rates above refer to the full screens.

SMILES	AID923	A488 fluor	TSHR agonist	Resorufin fluor	A647 fluor
CCOc1ccc(NC(=O)N2CCC(NC(=O)c3ccco3)CC2)cc1	0.4%	i	2%	i	1e-09
COc1cccc(NC(=O)C(C#N)Cc2ccncc2)c1 (centres undefined)	-1.6%	i	1%	i	1e-09
Nc1nnn(Cc2ccccc2)n1	1.5%	i	-4%	i	2.6e-08
CCCCCn1c(CNC(=O)CCC)nc2ccccc21	1.6%	nt	14%	nt	nt
O=C(c1cc(-c2cccs2)on1)N1CCCCC1	-0.3%	i	2%	i	1e-09
O=S(=O)(Nc1ccc(O)cc1)c1cccc2cccnc12	0.9%	nt	1%	nt	nt
CCOC(=O)CNS(=O)(=O)c1cc(-c2n[nH]c(=O)c3ccccc23)ccc1C	nt	i	nt	i	1.2e-09
Cc1ccc(SC(C)c2nc(-c3ccccc3)no2)cc1 (centres undefined)	0.0%	i	?	i	1e-09
CCOC(=O)c1[nH]cc(-c2ccccc2)c1N1CCOCC1	0.2%	i	-2%	i	4.1e-09
Cc1nc(NC(=O)CSc2nnc(C)n2CC2CCCO2)sc1C (centres undefined)	-0.1%	i	2%	i	1e-09
COCC(=O)N1CCC2(CC1)CN(C(=O)Nc1ccccc1)C2	2.6%	i	1%	i	9.6e-09
CC(Oc1ccc(Cl)cc1Cl)C(=O)Nc1ccc(N2CCN(C)CC2)cc1 (centres undefined)	-0.9%	i	-21%	i	2e-08
O=C(NCc1ccco1)c1cc(-c2cccs2)on1	-0.4%	i	11%	i	1e-09
O=C(COc1ccc(S(=O)(=O)Nc2ccccc2)cc1)N1CCOCC1	0.3%	i	-22%	i	2e-08
Cc1nn2c3c(cnc2c1-c1ccccc1)C(=O)CC(C)C3 (centres undefined)	0.3%	i	15%	i	7.2e-09
Cc1ccc(N(CC(=O)N2CCn3c2nc2ccccc23)S(=O)(=O)c2c(C)n[nH]c2C)cc1	-0.5%	i	-11%	i	3.8e-08
O=C(Cn1cnc2c(nnn2Cc2ccccc2F)c1=O)OCc1ccccc1	-1.6%	i	nt	i	4.1e-09
CCC(=O)c1ccc(CCCCCC(=O)O)s1	-3.6%	nt	-8%	nt	nt
CCOc1ccc(CCNC(=O)CCc2nc(-c3ccc(C)cc3)no2)cc1OCC	-1.6%	i	5%	i	1e-09
O=C(Nc1nc2c(s1)CCCC2=O)c1cnccn1	1.1%	i	-2%	i	3.7e-08
COc1ccc(-c2cc(C(F)(F)F)n3nc(C(=O)N4CCOCC4)c(Cl)c3n2)cc1	19%	nt	11%[11.4 µM]	nt	nt
COc1ccc(S(=O)(=O)CCC(=O)NC2CCCCC2)cc1	0.0%	i	-2%	i	3.1e-08
CCOC(=O)C1=C(C)NC2(O)c3ccccc3C(=O)C12O (centres undefined)	2.0%	nt	3%	nt	nt
COc1cccc(CNc2ccc3nc(-c4ccc(N)cc4)c(OC)n3n2)c1	-0.3%	nt	-6%	nt	nt
CC1CC(=O)N(CC(=O)Nc2ccc3c(c2)OCCO3)c2ccccc2S1 (centres undefined)	1.9%	nt	19%	nt	nt
CC(c1nnnn1C1CCCCC1)N(Cc1ccccc1)Cc1cccnc1 (centres undefined)	0.0%	i	?	i	5.2e-09
CC(=O)C1C(c2ccc3ncccc3c2)NC(=O)NC1(O)C(F)(F)F (centres undefined)	0.8%	i	-2%	i	2e-09
O=C(Nc1ccc(CN2CCOCC2)cc1)c1cccs1	-2.5%	i	-10%	i	1e-09
CCCCCn1c(=O)[nH]c2cc(C(=O)NCCCN3CCC(C)CC3)ccc2c1=O	0.3%	i	1%[11.4 µM]	i	1e-09
CCC(=O)Nc1nonc1-c1nc2ccccc2n1Cc1ccc(Cl)c(Cl)c1	-1.6%	i	nt	i	3.3e-08
CCOc1ccc(NS(=O)(=O)c2cc(Cl)ccc2OC)cc1	-0.3%	nt	-22%	nt	nt
CCOC(=O)N1CCN(c2c(NCCCN(C)c3ccccc3)c(=O)c2=O)CC1	0.0%	nt	6%	nt	nt
CC(Sc1nc(-c2ccccc2)cc(C(F)(F)F)n1)C(=O)N1CCCC1 (centres undefined)	1.0%	nt	6%	nt	nt
O=C(NCCCN1CCOCC1)C1CCC(=O)N1CCc1ccccc1 (centres undefined)	0.1%	nt	-2%	nt	nt
O=C(NCc1ccccc1Br)c1ccco1	-2.7%	i	0%	i	3.2e-09
COc1ccccc1C(=O)C1Nc2ccccc2-c2nnc(SC)nc2O1 (centres undefined)	2.4%	nt	2%	nt	nt

Just AID923 and A647 fluor, for 3 of the compounds above:
structure	AID923	A647 fluor
CCOc1ccc(NS(=O)(=O)c2cc(Cl)ccc2OC)cc1	-0.3%	nt
CCOC(=O)N1CCN(c2c(NCCCN(C)c3ccccc3)c(=O)c2=O)CC1	0.0%	nt
CC(Sc1nc(-c2ccccc2)cc(C(F)(F)F)n1)C(=O)N1CCCC1 (centres undefined)	1.0%	nt

Carrying on:
SMILES	AID923	A488 fluor	TSHR agonist	Resorufin fluor	A647 fluor
CN1CCN(CC#CC2(O)CCCCC2)CC1	0.0%	i	-2%	i	2.1e-09
O=c1cc(N2CCN(c3ccc(F)cc3)CC2)[nH]c(=O)n1C1CCCCC1	1.1%	i	0%	i	4e-09
CCOC(=O)Cc1cc(=O)n(-c2nc3ccccc3s2)[nH]1	-2.3%	i	-25%	i	2.3e-08
Cn1c(=O)c2nc(-c3ccccc3)oc2c2ccccc21	0.4%	i	?	i	3e-09
O=C(Nn1cnnc1)c1ccccc1CCc1ccccc1	3.3%	i	4%	i	3.9e-09
C=CCn1c(-c2ccco2)n[nH]c1=S	0.3%	nt	20%[11.4 µM]	nt	nt
COc1ccccc1-c1nc(NC2CC2)c2ccccc2n1	0.8%	i	?	i	1e-09
CCCCCCc1c(O)nc(SCC(=O)O)[nH]c1=O	-0.3%	nt	3%	nt	nt
CCOC(=O)c1cnc2scnn2c1=O	-0.8%	i	-1%	i	2.2e-08
CCCc1cc2c(=O)c(-c3ccccn3)c(C)oc2cc1O	0.6%	i	?	i	1e-09
CCNc1nc(OC)nc(SCC(N)=O)n1	-0.6%	i	-3%	i	2.6e-08
CCCc1cc(=O)[nH]c(SCC(=O)N(Cc2ccccc2)C(C)C)n1	-0.7%	i	?	i	1.4e-09
CC1CCCC(C)N1c1nnc(NC(=O)Cn2c(=O)oc3ccccc32)s1 (centres undefined)	-3.2%	nt	-4%	nt	nt
CCc1nc(OCCN(CC)CC)c2oc3ccccc3c2n1	-2.9%	i	13%	i	4.1e-09
NS(=O)(=O)c1ccc(CCNc2ncnc3sccc23)cc1	0.9%	i	19%	i	1.1e-09
O=C(CNC(=O)c1cccs1)OCC(=O)c1cccs1	1.9%	i	-4%	i	1e-09
CS(=O)(=O)N1CCC2(CCCN(c3cccc(-c4ccccc4)c3)C2)CC1	3.2%	i	5%	i	5.9e-09
O=C(CN1C(=O)CCS(=O)(=O)c2ccccc21)Nc1ccc2c(c1)OCCO2	-0.8%	i	11%	i	1.1e-09
Cc1cccc(-n2nnnc2SCC(=O)NCCN2C(=O)CSC2=O)c1	2.7%	i	0%	i	2.6e-09
CCOC(=O)Nc1nnc(CCc2ccccc2)s1	-0.3%	i	-1%	i	3.2e-08
COc1ccc(C)cc1NC(=O)c1nnn(CCc2ccccc2)c1N	2.1%	nt	29%	nt	nt
O=C(CSc1nnc(C2COc3ccccc3O2)o1)NC1CCCCC1 (centres undefined)	-0.7%	nt	19%	nt	nt
CC1(C(=O)NCCN2CCOCC2)C=CCN1C(=O)c1ccccc1 (centres undefined)	0.9%	nt	3%	nt	nt
Cc1nn(-c2ccc(C(=O)O)cc2)c(=O)c2ccccc12	-1.4%	i	-1%	i	4.6e-08
CCCC(=O)Nc1ccc2c(c1)nc1n2CCOC1	-1.0%	i	-7%	i	2.7e-08
CCCOc1nc2c(c(=O)n(C)c(=O)n2C)n1CCC	-0.9%	i	22%	i	2.8e-08
Cc1cccc2c1nc(-c1ccccc1)n1nnnc21	1.3%	i	?	i	1e-09
O=S(=O)(N[C@@H]1C[C@H]2CC[C@@H]1C2)c1cccs1	nt	i	nt	i	2.6e-08
N#Cc1ccc(CN2CC[C@@]3(CCCN(S(=O)(=O)c4ccccc4)C3)C2)cc1	0.0%	i	24%	i	1.9e-08
COc1ccc(Nc2nc(OC)nc(N3CCN(c4ccc(OC)cc4)CC3)n2)cc1	-0.3%	nt	-3%	nt	nt
O=C(N[C@@H](Cc1ccccc1)C(=O)O)c1cccnc1	3.8%	nt	1%	nt	nt
CCCCOc1ccccc1C1NC(=O)NC(C)=C1C(=O)OCCOCC (centres undefined)	-2.1%	nt	?	nt	nt
COC(=O)CC#N	0.9%	nt	-2%	nt	nt
OC(COc1ccc2c(c1)CCC2)CN1CCN(c2ccccc2F)CC1 (centres undefined)	-1.0%	i	-27%	i	1.9e-08
CCN(CC)CCCCCCCCOC(=O)c1cc(OC)c(OC)c(OC)c1	1.3%	i	-4%	i	3e-09
Cc1cc2cc(CN(CC3CCCO3)C(=O)c3cnccn3)c(=O)[nH]c2cc1C (centres undefined)	0.6%	i	3%	i	1.5e-08

A few values from above:
CCCCCn1c(CNC(=O)CCC)nc2ccccc21 | TSHR agonist = 14%
CC1CC(=O)N(CC(=O)Nc2ccc3c(c2)OCCO3)c2ccccc2S1 (centres undefined) | AID923 = 1.9%
COc1ccc(S(=O)(=O)CCC(=O)NC2CCCCC2)cc1 | A647 fluor = 3.1e-08
O=C(Nc1ccc(CN2CCOCC2)cc1)c1cccs1 | AID923 = -2.5%

Continuation.
SMILES	AID923	A488 fluor	TSHR agonist	Resorufin fluor	A647 fluor
O=C(CN1CCN(c2ccccn2)CC1)N1c2ccccc2CCc2ccccc21	2.7%	i	18%	i	4.2e-09
CCC(C(=O)Nc1nc(C)cs1)c1ccccc1 (centres undefined)	1.9%	i	10%	i	1e-09
CCOc1cc2c(cc1OCC)C(C(=O)O)C(c1ccc(OC)c(O)c1)N(C)C2=O (centres undefined)	-1.2%	i	1%[11.4 µM]	i	1.4e-08
O=C(CSc1ncnc2c1nnn2-c1ccc(F)cc1)NCc1ccco1	2.5%	nt	23%	nt	nt
CCOc1ccc(Br)cc1-c1noc(-c2cccs2)n1	1.6%	i	25µM*	i	2.4e-08
CCOC(=O)c1cc(-c2ccc(C)o2)nn1CCC#N	0.4%	i	5%	i	2.5e-09
C#C[C@@]1(O)CC[C@@H]2[C@@H]3CCC4=CC(=O)CC[C@@H]4[C@H]3CC[C@]21C	1.8%[25.7 µM]	i	?	i	2.2e-09
CCC1(CC)C(=O)C(C)(C)C(=O)OC1c1ccccn1 (centres undefined)	1.5%	i	7%	i	3.5e-08
CN(C)CCCCCNCCCNC(=O)/C=N\O	-1.9%	nt	-3%[11.4 µM]	nt	nt
Cc1cc(C)nc(NCC(O)COc2ccccc2C)n1 (centres undefined)	1.3%	i	2%	i	7.4e-09
CC12C=C(/C=C/c3ccc(C(F)(F)F)cc3)C(C)(C1)C(c1ccc(C(F)(F)F)cc1)CC2=O (centres undefined)	0.4%[11.5 µM]	nt	6%[11.4 µM]	nt	nt
Cc1cc(-c2ccc(N=Nc3ccc4c(S(=O)(=O)O)cc(S(=O)(=O)O)c(N)c4c3O)c(C)c2)ccc1N=Nc1ccc2c(S(=O)(=O)O)cc(S(=O)(=O)O)c(N)c2c1O	-0.5%	nt	-30%[inhibitor]	nt	nt
COc1cc(OC)cc(-c2nnc(SCc3cccnc3)o2)c1	2.0%	i	7%	i	1e-09
O=C(Nc1ccc2nc(C3CC3)n(Cc3ccc(F)cc3)c(=O)c2c1)c1ccco1	0.5%	i	nt	i	4.2e-08
CN(Cc1ccco1)c1nc(-c2ccoc2)nc2ccccc12	3.0%	i	?	i	1.7e-08
COc1ccc(C2C(C(=O)N3CCC(C)CC3)c3ccccc3C(=O)N2C)cc1 (centres undefined)	-0.4%	i	?	i	1e-09

Bioassay records deposited in PubChem BioAssay by National Center for Advancing Translational Sciences (NCATS).
